Assay outcomes deposited in PubChem BioAssay by several laboratories.
CSC inhib – cancer stem cell inhibition | cancer stem cell-like cells viability, luminescence | inhibition, % at 7.5 µM | hit rate 1.1% among 300,000;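 active = mean at 75% or more and at least half the replicates too; tested in HMLE shEcad cells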;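 also: 0% = median of negative and 100% = median of positive control wells; the first replicate is given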
MT1-MMP act inh – inhibitors of human MT1-MMP activation; P50281; HT1080 RFP-PRO-GFP cells, GFP/RFP ratio fluorescence, overnight; percent of plate control window, DMSO zero; GFP/RFP ratio change, % at 20 µM; hit rate 0.061% among 360,000;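 active = GFP/RFP ratio change of at least 30% with cell ATP level not reduced by more than half and red fluorescence within 50% of control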; also: strong numbers were not always called active
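Material – HT1080 RFP-PRO-GFP cells · Control set – DMSO wells and RFP-L50D-GFP cells · Incubation – overnight cell settling, then overnight compound exposure, 37 °C, 5% CO2 · Compound dosing – single-point 20 µM compound, 1% DMSO · Read-out – GFP/RFP fluorescence ratio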
eIF4H inh – inhibitors of RNA binding by human eIF4H | inhibition, % at 35 µM | hit rate 0.94% among 290,000 | AID 2012 | eIF4H fluorescence polarization binding assay | Q15056;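 active = 50% or more with normal probe brightness, or confirmed in later tests; about a fifth of its hits are not listed in these tables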;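 also: calls also rest on retests at 20 µM and on dose response follow-up; 0% = protein and probe with vehicle and 100% = probe without protein; strong numbers were not always called active; many hits fall short of the cut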
HIV Env fusion – HIV envelope-mediated fusion inhibition; HeLa-JRFL Env/CEM21 cell fusion, luciferase; inhibition, % at 12.3 µM; hit rate 1.1% among 360,000; AID 651610;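 active = mean replicate inhibition score of at least 50 and every replicate individually at or above 50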;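 also: 0% = plate neutral controls and 100% = maraviroc near 300 nM; one replicate is shown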
Rce1 inh – blocks yeast Ras-converting enzyme | Q03530 | yeast membranes, quenched prenylated peptide cleavage fluorescence | calls only | hit rate 0.27% among 290,000 | AID 2563;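 active = fall in fluorescence gain of 50% or more versus controls, with final raw signal at or below 3038400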;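 also: plate controls were neutral control wells for no effect and wells lacking membranes for full effect; tested at 10 µM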
Target sequence (Q03530 whole entry, looked up): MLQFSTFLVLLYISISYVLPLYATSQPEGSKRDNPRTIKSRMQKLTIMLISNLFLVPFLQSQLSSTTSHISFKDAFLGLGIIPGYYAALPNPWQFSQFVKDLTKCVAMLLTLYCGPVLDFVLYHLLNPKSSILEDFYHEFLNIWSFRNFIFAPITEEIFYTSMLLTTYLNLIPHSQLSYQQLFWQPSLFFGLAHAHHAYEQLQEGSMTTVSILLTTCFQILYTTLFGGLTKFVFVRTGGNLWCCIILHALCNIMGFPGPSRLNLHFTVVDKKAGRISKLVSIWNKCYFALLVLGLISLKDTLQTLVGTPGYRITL
Yeast UUG start – alters start codon recognition fidelity in yeast. AID 602363. S. cerevisiae UUG-firefly luciferase reporter, luminescence/redox ratio. activity score, % at 18.7 µM. hit rate 0.13% among 350,000;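 active = replicate mean at a twofold rise or more, about +100% in these data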;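 also: firefly luciferase made from a UUG start codon reports start codon fidelity; reporter light over untreated wells divided by growth signal over untreated wells; some hits fall short of that in this replicate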
PABP polyA inh – PABP-poly(A) binding inhibition; P11940; PABP-poly(A) RNA binding, fluorescence polarization; inhibition, % at 35 µM; hit rate 1% among 290,000;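 active = 50% or more with normal probe brightness, or confirmed in later tests; about a fifth of its hits are not listed in these tables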;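 also: calls also rest on retests at 20 µM and on dose response follow-up; controls were probe without protein and protein plus probe with vehicle; some compounds called inactive have numbers as strong as hits; many hits fall short of the cut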
Target sequence (P11940 whole entry, looked up): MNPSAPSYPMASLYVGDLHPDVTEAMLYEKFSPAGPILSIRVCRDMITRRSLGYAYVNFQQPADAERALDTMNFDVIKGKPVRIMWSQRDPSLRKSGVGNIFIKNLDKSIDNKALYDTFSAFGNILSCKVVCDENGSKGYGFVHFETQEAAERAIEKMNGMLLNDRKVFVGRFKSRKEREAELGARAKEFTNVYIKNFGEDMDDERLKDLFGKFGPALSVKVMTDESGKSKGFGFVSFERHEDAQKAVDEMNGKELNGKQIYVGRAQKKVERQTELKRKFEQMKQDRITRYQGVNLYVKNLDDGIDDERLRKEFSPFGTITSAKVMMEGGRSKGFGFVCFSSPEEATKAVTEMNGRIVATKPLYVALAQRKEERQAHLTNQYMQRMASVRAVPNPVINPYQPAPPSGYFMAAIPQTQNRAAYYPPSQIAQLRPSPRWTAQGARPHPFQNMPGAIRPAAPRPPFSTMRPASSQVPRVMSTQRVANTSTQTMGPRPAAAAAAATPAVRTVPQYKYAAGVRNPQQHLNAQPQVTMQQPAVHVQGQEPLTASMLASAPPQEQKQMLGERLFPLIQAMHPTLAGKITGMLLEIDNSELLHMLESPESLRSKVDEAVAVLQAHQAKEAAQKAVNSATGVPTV
eIF4H inh retest – also measured in eIF4H inh; calls as there; inhibition, %; compound at 20 µM; confirmation average;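 mean of two retest wells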
PABP polyA inh retest – recorded beside PABP polyA inh, whose call it bears; inhibition, %; compound at 20 µM; confirmation repeats;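 mean of two retest wells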
MT1-MMP act inh RFP – second read-out of MT1-MMP act inh, no call of its own (marks repeat the call); RFP signal change, %; measured here: RFP expression control read;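 0 = vehicle wells; hits needed this value within 50% of zero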
Active calls of the source: *; i = inactive; . = no result given; & = joins results of further samples; [ ] = another dose, or the depositor's remark. The list is partial. The share of hits here may be higher or lower than overall.

SMILES	CSC inhib	MT1-MMP act inh	MT1-MMP act inh RFP	eIF4H inh	HIV Env fusion	Rce1 inh	Yeast UUG start	PABP polyA inh	others
COc1ccc(-c2noc(N3CCC(C(=O)Nc4ccc(OC)cc4OC)CC3)n2)cc1	0	-5	-17	-1	.	i	6	-7
O=C(CCCCCNC(=O)N1CCn2c1nc1ccccc12)NCCc1ccccc1	-10	2	4	-15	7	i	-12	-10
CCOC(=O)c1c(C)[nH]c(NC(=O)Nc2c(C)n(C)n(-c3ccccc3)c2=O)c1C	-12	-29	5	18	.	i	-12	6
CCc1ccccc1NC(=S)/N=C(\N)Nc1nc(C)c2cc(C)ccc2n1	-26	.	.	3	-36	i	-22	8
CCOc1ccccc1NC(=O)C1CCCN(C(=O)Nc2ccccc2)C1 (centres undefined)	14	4	3	-7	-58	i	-7	9
CC(C)(C)OC(=O)C[C@@H]1C/C=C\C[C@H](CC(=O)NCCO)C(=O)N[C@@H](Cc2ccccc2)COC1=O	8	1	0	.	4	.	1	.
COc1ccc2c(Cl)c(C(=O)NCCc3ccc(S(N)(=O)=O)cc3)sc2c1	-8	1	3	-1	1	i	-20	-7
N#C/C(=C\c1ccncc1)c1nc2ccccc2[nH]1	.	-8	3	35	-4	i	.	5
COc1cc(CNC(=O)Nc2nc(C(N)c3ccccc3)cs2)cc(OC)c1OC (centres undefined)	.	-3	3	.	-20	.	-2	.
COc1ccc(OC)c(NC(=O)CNC(=O)Cn2ccc3ccccc3c2=O)c1	-6	-1	-1	-8	1	i	-8	-8
c1ccc2c(c1)NC(c1ccncc1)n1c-2nc2ccccc21 (centres undefined)	1	-17	-6	4	44	i	-5	-5
Cc1ccc(-n2nc3c(c2NC(=O)c2cccs2)CS(=O)(=O)C3)cc1C	7	-2	2	-9	-1	i	-11	-2
CCN1CCN(c2cc(C)c3cc(NC(=S)N(CC)CC)ccc3n2)CC1	-17	-1	1	-1	-1	i	.	0
COc1ccc(NC(=O)CN(C)C(=O)CCCSc2nc3ccccc3[nH]2)cc1	-3	2	2	.	-4	i	.	.
CC(Sc1nnc(-c2ccccc2F)n1C)C(=O)NC1CCCCC1 (centres undefined)	14	1	3	.	4	.	-8	.
OC[C@H]1O[C@@H](c2nc(-c3ccccc3Br)no2)[C@H](O)[C@@H]1O	.	-9	3	.	5	.	-8	.
CCc1nc(NC(=O)NS(=O)(=O)c2ccccc2C(=O)OC)nc(OC)n1	-17	2	2	-4	11	i	.	3
CSc1ccc(CN2CCC(C)(Oc3cccc(F)c3)C2)cc1 (centres undefined)	.	1	4	.	14	.	-15	.
CC(=O)c1cc2c(cc1NC(=O)CCn1cccc1)OCO2	-5	-1	2	4	.	i	-16	-1
CC12CCC(CC1=O)C2(C)C (centres undefined)	-14	1	7	.	.	.	-7	.
CCNC(=S)N1CCC(C(O)(c2ccccc2)c2ccccc2)CC1	1	-1	6	-9	13	i	.	6
O=C(O)c1cccc(-n2c(/C=C/c3cccc([N+](=O)[O-])c3)nc3ccccc3c2=O)c1	-8	-5	-4	-12	17	i	-15	4
O=C(CC[C@H]1O[C@@H](n2ccc(=O)[nH]c2=O)[C@H](O)[C@@H]1O)N[C@H](Cc1ccccc1)C(=O)NCC1CCCCC1	.	1	4	.	-5	.	-9	.
Cc1nc(SCC(=O)NCC2CCCO2)c2c3c(sc2n1)CCCC3 (centres undefined)	0	-2	-4	-17	9	.	-8	2
COc1ccc(NC(=O)COC(=O)C2CC(=O)N(c3ccc(C)cc3)C2)cc1 (centres undefined)	-11	1	2	-2	3	.	-11	11
CCc1ccc(CNC(=O)CC2C(=O)NCCN2Cc2ccccc2F)nc1 (centres undefined)	1	-2	4	26	56*	i	-28	22
Cc1cccc(NC(=O)/C(=C/c2cccc([N+](=O)[O-])c2)NC(=O)c2cccs2)c1	3	7	6	-8	-23	i	.	5
COc1ccc(C(=O)N2CCN(C3CCCCC3)CC2)cc1OC	3	2	2	3	-5	i	-19	9
CC1CCCCC1NC(=O)C1CCC(CNS(=O)(=O)c2ccc3c(c2)C(C)(C)C(=O)N3C)CC1 (centres undefined)	.	5	-2	.	11	.	-8	.
CCc1nnc(NC(=O)CCC(=O)N2CCN(Cc3ccc(F)cc3)CC2)s1	-5	3	1	-5	-27	i	-16	4
N#CC1=C(N)Oc2cc(N)ccc2C1c1ccc(F)cc1F (centres undefined)	20	-90	-8	59	-127	.	-22	20*	eIF4H inh retest=20;PABP polyA inh retest=85*
O=C(Cc1c[nH]c2ccccc12)Nc1nccs1	2	6	3	-9	.	i	-11	0
COc1ccc2nc(C)[nH]c(=O)c2c1	.	3	5	-9	.	i	-7	-8
Cc1cccc2cc(C#N)c(NCCCNS(=O)(=O)c3ccc(Cl)cc3)nc12	5	-2	-23	-8	35	i	-7	-5
O=C(NC1CCCCC1)C(c1cccs1)N(CC1CCCO1)C(=O)c1csnn1 (centres undefined)	-13	2	5	-8	-32	.	3	-2
COc1cc(SC)ccc1C(=O)Nc1ccc2c(c1)CCN2S(C)(=O)=O	30	5	-5	4	.	i	-5	10

Looked up by structure from above:
SMILES	CSC inhib	MT1-MMP act inh	MT1-MMP act inh RFP	eIF4H inh	HIV Env fusion	Rce1 inh	Yeast UUG start	PABP polyA inh	others
CCc1nnc(NC(=O)CCC(=O)N2CCN(Cc3ccc(F)cc3)CC2)s1	-5	3	1	-5	-27	i	-16	4
Cc1cccc2cc(C#N)c(NCCCNS(=O)(=O)c3ccc(Cl)cc3)nc12	5	-2	-23	-8	35	i	-7	-5

Going on with the list:
SMILES	CSC inhib	MT1-MMP act inh	MT1-MMP act inh RFP	eIF4H inh	HIV Env fusion	Rce1 inh	Yeast UUG start	PABP polyA inh	others
C/C(=N\NC(=O)c1nnn(-c2nonc2N)c1CN1CCC(C)CC1)c1cccc(Br)c1	-13	-5	1	-20	-11	i	-7	-14
CCOC(=O)c1c(C)[nH]c(C)c1C(=O)COC(=O)c1sccc1C	4	-1	1	.	-11	.	12	.
COc1cc(OC)c(OC)cc1CNCC1COc2ccccc2O1 (centres undefined)	-21	0	-1	.	10	i	1	.
NC(=O)CSc1nnc(-c2ccco2)n1N	-1	2	1	30	-23	i	2	-2
Cc1ccc(-c2nc3ccc([N+](=O)[O-])cc3[nH]2)cc1	-6	5	-3	-8	-136	i	.	28
COc1cccc(C2CC(c3ccccc3)=NN2S(=O)(=O)c2ccccc2)c1OC (centres undefined)	10	-11	-6	-7	-5	i	3	-5
CC1(C)CN(c2ccc(F)cc2)C1=O	-16	-5	-2	7	-3	i	.	-4
COc1ccc(-n2cnnc2SCC(=O)N(C)c2ccccc2)cc1	22	1	2	-5	-73	i	-15	1
O=C(O)/C(=C\c1ccco1)NC(=O)c1ccc(Br)o1	4	-2	1	.	9	.	-9	.
O=C(Nc1nnc(C2CC2)s1)c1cc(-c2ccccc2)nn1-c1ccccc1	21	1	-1	3	.	i	-14	-2
Fc1ccc(N2CCN(C3CCC(c4ccccc4)CC3)CC2)cc1 (centres undefined)	-5	1	-3	-20	10	i	-10	2
COc1ccc(NS(=O)(=O)c2ccc3oc4ccccc4c3c2)cn1	8	13	-9	4	48	.	-8	-9
CN(C)C(=O)c1ccc(-c2cc3onc(-c4ccccc4)c3c(=O)n2C)cc1	-7	5	-32	.	42	.	-15	.
COc1ccc(CN2CCOC2=O)cc1OC	-12	3	4	5	-2	i	-13	-2
COc1cccc(CNC(=O)c2ccc(F)c(S(=O)(=O)N3CCCCC3)c2)c1	.	1	-7	.	18	.	-6	.
COc1ncnc2c1ncn2CCCNCc1ccc(C)o1	.	-2	-1	.	-4	.	-9	.
COc1ccccc1N(C)S(=O)(=O)c1ccc(Cl)c(C(=O)N2CCC2)c1	-3	3	6	.	.	i	5	.
CCCS(=O)(=O)N1CCN(C(=O)c2ccccc2F)CC1	0	0	-1	6	-16	i	.	10
C[C@@H]1CN([C@H](C)CO)C(=O)c2cc(NC(=O)Nc3ccc(C(F)(F)F)cc3)ccc2O[C@H]1CN(C)S(=O)(=O)c1cccs1	.	-3	-10	.	4[16.7 µM]	.	-10&-8	.
COc1ccc(Cl)cc1NC(=O)CCS(=O)(=O)c1ccc(Br)cc1	-8	4	3	84*	14	i	8	55*
O=C(C1COc2ccccc2O1)N1CCN(c2nc3ccc([N+](=O)[O-])cc3s2)CC1 (centres undefined)	1	3	-2	.	-17	i	-7	.
COc1ccc2[nH]c(C(=O)NCc3ccc4c(c3)OCO4)cc2c1	38	0	-5	-4	-25	i	-10	-5
C=CCOC(=O)c1ccc(-n2cncn2)nc1	-7	0	-1	4	-33	i	-22	1

Of the compounds above, these contain an NH in an aromatic ring:
SMILES	CSC inhib	MT1-MMP act inh	MT1-MMP act inh RFP	eIF4H inh	HIV Env fusion	Rce1 inh	Yeast UUG start	PABP polyA inh	others
CCOC(=O)c1c(C)[nH]c(NC(=O)Nc2c(C)n(C)n(-c3ccccc3)c2=O)c1C	-12	-29	5	18	.	i	-12	6
N#C/C(=C\c1ccncc1)c1nc2ccccc2[nH]1	.	-8	3	35	-4	i	.	5
COc1ccc(NC(=O)CN(C)C(=O)CCCSc2nc3ccccc3[nH]2)cc1	-3	2	2	.	-4	i	.	.
O=C(CC[C@H]1O[C@@H](n2ccc(=O)[nH]c2=O)[C@H](O)[C@@H]1O)N[C@H](Cc1ccccc1)C(=O)NCC1CCCCC1	.	1	4	.	-5	.	-9	.
O=C(Cc1c[nH]c2ccccc12)Nc1nccs1	2	6	3	-9	.	i	-11	0
COc1ccc2nc(C)[nH]c(=O)c2c1	.	3	5	-9	.	i	-7	-8
CCOC(=O)c1c(C)[nH]c(C)c1C(=O)COC(=O)c1sccc1C	4	-1	1	.	-11	.	12	.
Cc1ccc(-c2nc3ccc([N+](=O)[O-])cc3[nH]2)cc1	-6	5	-3	-8	-136	i	.	28
COc1ccc2[nH]c(C(=O)NCc3ccc4c(c3)OCO4)cc2c1	38	0	-5	-4	-25	i	-10	-5
